Compound activity (PubChem)
VDR inhibitor = Inhibitors of the vitamin D receptor (VDR): qHTS; Vitamin D3 receptor (Homo sapiens), P11473; VDR-SRC2-3 peptide fluorescence polarization, 2 h; Potency, µM, for inactives: max response, negative = inhibition, hits mostly inhibitors; 400,000 tested, 0.93% active; AID 504847, 2011; active = well fitted inhibition curve with a large enough effect; inconclusive = small, poorly fitted or top-dose-only effect, or another doubt; inactive = no such curve, though single readings can be large or run the other way; also: series mostly up to about 120 µM
Target sequence (P11473 whole entry, looked up): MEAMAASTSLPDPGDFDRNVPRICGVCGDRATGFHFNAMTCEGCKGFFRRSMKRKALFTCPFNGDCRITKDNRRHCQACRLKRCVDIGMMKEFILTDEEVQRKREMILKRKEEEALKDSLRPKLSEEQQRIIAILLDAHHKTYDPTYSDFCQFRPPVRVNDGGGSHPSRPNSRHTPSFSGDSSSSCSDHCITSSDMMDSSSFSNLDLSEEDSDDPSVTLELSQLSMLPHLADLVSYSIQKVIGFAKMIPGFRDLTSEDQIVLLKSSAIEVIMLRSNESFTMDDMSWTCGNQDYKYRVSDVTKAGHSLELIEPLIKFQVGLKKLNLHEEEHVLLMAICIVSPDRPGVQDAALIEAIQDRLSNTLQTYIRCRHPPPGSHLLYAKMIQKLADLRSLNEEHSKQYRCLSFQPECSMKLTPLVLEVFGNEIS
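Signal is fluorescence polarization, reporting how far test compounds block the interaction of VDR with the SRC2-3 coregulator peptide after a 2 h room-temperature incubation.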
* = called active by the depositor; ? = inconclusive; & = joins results of further samples. % is scaled to controls: 0 for no effect and ±100 for the full control effect; potency is read from the fitted curve at half-maximal effect. Only part of the results is shown, so the mix of outcomes need not match the whole.

The first two records as a preview:
SMILES	VDR inhibitor
N#C/C(=C\c1c(N2CCOCC2)nc2ccccn2c1=O)C(=O)NC1CCS(=O)(=O)C1 (stereo not drawn)	-7%
CCCCn1c(-c2cccc(F)c2)nc2c1c(=O)[nH]c(=O)n2CC(C)C	19%

The whole of this part, previewed entries included:
SMILES	VDR inhibitor
N#C/C(=C\c1c(N2CCOCC2)nc2ccccn2c1=O)C(=O)NC1CCS(=O)(=O)C1 (stereo not drawn)	-7%
CCCCn1c(-c2cccc(F)c2)nc2c1c(=O)[nH]c(=O)n2CC(C)C	19%
Cc1oc(-c2ccccc2)cc1C(=O)NC1CCN(Cc2ccccc2)CC1	7%
COc1ccccc1NS(=O)(=O)c1cc2c3c(c1)CC(=O)N3CCC2	21%
Cc1ccc(S(=O)(=O)NCc2ccc(C(=O)NC3CC3)cc2)cc1	2%
O=C(Nc1nnc(-c2ccc(F)cc2)s1)Nc1ccccc1F	-10%
COc1ccc(NC(=O)C23CC4CC(CC(Cl)(C4)C2)C3)cc1S(=O)(=O)N1CCOCC1	9%
O=C(NCC(c1ccc2c(c1)OCO2)N1CCN(c2ccccc2)CC1)C(=O)Nc1ccc(F)cc1 (stereo not drawn)	1%
Cc1cc(C)cc(N=C2SC(CC(=O)Nc3ccccc3)C(=O)N2CCN2CCOCC2)c1 (stereo not drawn)	-10%
CCS(=O)(=O)N1Cc2ccccc2CC1C(=O)NCCc1c[nH]c2ccccc12 (stereo not drawn)	-21%
Cc1ccc(S(=O)(=O)/C(C#N)=C/c2c(N3CCC(C(N)=O)CC3)nc3c(C)cccn3c2=O)cc1	1%
COc1cc([C@@H]2c3cc4c(cc3[C@H](O)[C@H]3COC(=O)[C@H]23)OCO4)cc(OC)c1OC	-8%&-10%&6%&2%&-6%
CC(=O)NCCNc1nc2c(-c3ccccc3)nnn2c2ccccc12	-1%
O=C(Cn1c(NCCCO)nc2ccccc21)c1ccc(Cl)cc1	3%
COc1ccc(-c2cc(C(=O)Oc3ccc(C)cc3)c3cc(C)ccc3n2)cc1	3%
CC(C)[C@H](CO)Nc1nc(Nc2cc(N)cc(Cl)c2)c2ncn(C(C)C)c2n1	-3%
CC(=O)c1cc(-c2ccc(F)cc2)n(CCC(=O)Nc2nc3ccc(C)cc3s2)c1C	7%
O=C(Cn1cc(C(F)(F)F)cc(Cl)c1=O)NCc1ccccc1	-18%
Cc1nc(SCC(=O)NC(=O)NC2CCCCC2)nc(C)c1C	-3%
O=C(NCC1CC1)c1cccc2c1C(=O)c1ccc(-c3ccc(OC(F)(F)F)cc3)cc1S2(=O)=O	-15%
Cc1cc(C)c2sc(NC(=O)c3ccc(N4C(=O)CCC4=O)cc3)nc2c1	-16%
C=CCn1c(SCC(=O)Nc2ccc3c(c2)OCO3)nc2ccccc2c1=O	1%
C(=C\c1ccncc1)/c1ccncc1	-11%
Cc1ccccc1Cn1ccc(NC(=O)c2cnn3c(C(F)(F)F)cc(-c4ccco4)nc23)n1	2%
COc1nc(-c2ccccc2)ccc1-c1noc(-c2ccccc2)n1	15%
COC(=O)Cc1ccc(NC(=S)NCc2ccccc2)cc1	-16%
COc1ccc(C2(C)ON(c3ccccc3C(F)(F)F)C2=O)cc1 (stereo not drawn)	-27%
Cc1ccc(S(=O)(=O)N2C[C@@H]3[C@H]4CC[C@H](C4)[C@@H]3[C@@H](C)[C@@H]2c2cccn2Cc2ccccc2)cc1	10%
Cc1cc(C)cc(NC(=O)NCC(O)COc2ccc([N+](=O)[O-])cc2)c1 (stereo not drawn)	-8%
CCC1=C(OC(=O)N(CC)CC)N2C(=O)OC(=NCC3CC3)[C@]2(Cc2ccccc2)[C@H]2C1=CC[C@H]1C(=O)N(c3ccccc3)C(=O)[C@H]12	7%
Cc1sc2ncnc(N)c2c1C	-1%
CC1CCN(c2nc3c(c(=O)[nH]c(=O)n3C)n2CCCc2ccccc2)CC1	-9%
CCN(CC)S(=O)(=O)c1ccc(OC)c(NS(=O)(=O)Cc2ccccc2)c1	-14%
CCOc1ccc(NC(=O)CN2CCN(CC(=O)Nc3cc(OC)cc(OC)c3)CC2)cc1	3%
CCOc1ccccc1NC(=O)C1CCCN(C(=O)NCc2ccccc2)C1 (stereo not drawn)	-6%
CC(=O)N1[C@H](Cc2ccccc2)C=C[C@]1(C)C(=O)NCCN1CCOCC1	-11%
CCOC(=O)C1=C(C)N(CC(C)C)C(=O)/C1=C\c1ccc(OCC(=O)Nc2ccccc2)cc1	6%
CC1CN(C(=S)Nc2ccc(Br)cc2Cl)CC(C)O1 (stereo not drawn)	-17%
CC(=O)c1cccc(NC(=O)c2cc(-c3cccs3)on2)c1	7%
Cn1c(SCC(=O)OC2CCCCC2)nnc1-c1ccco1	4%
CC(=O)N(CCCc1ccc(C(C)(C)C)cc1)CCCN(C)C	-9%
Brc1ccccc1-c1nnc(-c2cccnc2)o1	0%
CCOc1ccc2c(c1)C(C)=CC(C)(C)N2S(=O)(=O)c1ccc(C)cc1	-18%
COC(=O)c1ccc(NC(=O)C2CCN(S(=O)(=O)c3ccc4c(c3)CCCN4C(C)=O)CC2)cc1	6%
COC(=O)c1scc(-c2ccc(C)cc2)c1S(=O)(=O)N1CCN(c2ccccc2F)CC1	5%
COc1ccc(-c2cc(C(=O)NCCc3ccccc3)c3c(-c4ccccc4)[nH]nc3n2)cc1OC	-9%
COc1ccc(OC)c(CNCc2ccc3c(c2)OCO3)c1	4%
CC(N=c1ccccn1C(=O)Nc1ccc(F)cc1)c1ccco1 (stereo not drawn)	4%
N#Cc1ccc(OCC(=O)N2CCN(S(=O)(=O)c3cccs3)CC2)cc1	0%
CCOC(=O)[C@@H]1[C@H]2COc3ccc(Br)cc3[C@H]2N2C(=O)N(c3ccc(F)cc3)C(=O)[C@@]12C	0%
COc1ccc(OS(=O)(=O)Cc2ccccc2)cc1	14%
CC1CCN(CCCCOc2ccc(F)cc2)CC1	-12%
CCOc1ccccc1NC(=O)NCCCCc1ccccc1	13%
CC1CC(=O)Nc2ccccc2N1C(=O)CSc1ccc2ccccc2n1 (stereo not drawn)	-8%
Cc1cc(C)c(C)c(S(=O)(=O)N2C(=S)NC(=O)C2CC(C)C)c1C (stereo not drawn)	5%
CCOc1ccc(OCC)c(NC(=O)C2CCCN(S(=O)(=O)c3cccs3)C2)c1 (stereo not drawn)	6%
CC(=O)NC1=NN(C(C)=O)C2(CCCCC2)S1	2%
COc1ccc2c(C)cc(SCC(=O)Nc3nsc(-c4ccccc4C)n3)nc2c1	3%
COc1ccc(C)cc1-n1cnnn1	11%
Cn1c(CCNC(=O)c2ccco2)nc2cc(NS(=O)(=O)c3ccc(Cl)cc3)ccc21	14%

Single values from the entries so far.
Entry of COc1ccc(C)cc1-n1cnnn1 in VDR inhibitor: 11%
Entry of CCN(CC)S(=O)(=O)c1ccc(OC)c(NS(=O)(=O)Cc2ccccc2)c1 in VDR inhibitor: -14%
Entry of COc1ccc(C2(C)ON(c3ccccc3C(F)(F)F)C2=O)cc1 (stereo not drawn) in VDR inhibitor: -27%
Entry of C(=C\c1ccncc1)/c1ccncc1 in VDR inhibitor: -11%

(further entries)
SMILES	VDR inhibitor
COc1ccc(OC)c(-c2cc(C(=O)Nc3c(C)nn(Cc4ccc(Cl)cc4)c3C)no2)c1	-3%
Cc1ccc(S(=O)(=O)N2CCCC(C(=O)NC3CCCC3)C2)cc1Cl (stereo not drawn)	-8%
CN(C)c1nc(N)nc(Nc2ccccc2C#N)n1	-4%
CN1CCC(=O)N([C@H](CSc2ccccc2)Cc2ccccc2)CC1	-13%
Cc1c(N=C2SCC(=O)N2/N=C/c2ccccc2Cl)c(=O)n(-c2ccccc2)n1C	12%
COc1ccc(C(=O)COC(=O)c2cc(-c3cccs3)nc3ccccc23)cc1	14%
COc1ccc(Cl)cc1NC(=S)N(Cc1cccnc1)Cc1ccco1	-16%
CC(C)NC(=O)Nc1ccc2c(c1)CC(=O)N([C@@H](C)CO)C[C@H](C)[C@@H](CN(C)C(=O)NC1CCCCC1)O2	89µM*
C/C(=N\OCc1ccccc1C#N)c1cc2ccccc2o1	-4%
COc1ccc(/C(C)=N/NC(=O)c2ccc(CSc3nncn3C)cc2)cc1	-15%
COc1cccc(CN(C(=O)c2ccc([N+](=O)[O-])cc2)C2CCS(=O)(=O)C2)c1 (stereo not drawn)	?
Cc1ccc(-c2ccc(=O)n(CCC(=O)NCCc3ccccc3)n2)cc1	11%
CC(C)OC(=O)c1ccc(NC(=O)CSc2nc3ncccc3[nH]2)cc1	2%
Cc1ccccc1NC(=O)c1cccc2c1C(=O)N(C1CCCCC1)C2	-6%
O=C1c2oc3ccccc3c(=O)c2C(c2ccc(O)cc2)N1c1nccs1 (stereo not drawn)	-1%
Cc1cccc(C(=O)Nc2cc3c(cc2C)n(C)c(=O)n3C)c1	-6%
COc1ccccc1NC(=O)c1ccc(SCC(=O)NCc2ccccc2Cl)c([N+](=O)[O-])c1	-15%
CCCSCCCNC(=O)c1ccc(Cn2c(=O)c3cccn3c3cccnc32)cc1	7%
Cn1nnnc1SCC(=O)NC1CCCC1	-8%
CCOC(=O)C(C(=O)Cc1ccccc1)c1ccccc1 (stereo not drawn)	7%
O=S(=O)(c1cccc(-c2n[nH]c(=S)n2-c2ccccc2Cl)c1)N1CCOCC1	?
CC(C)(C)c1cc(CCC(=O)N2CCC2)cc(C(C)(C)C)c1O	4%
Cc1cc(Nc2cccc(C)c2C)n2cnnc2n1	0%
Cc1cc(=O)c2cc(C(=O)Nc3ccccc3)ccc2[nH]1	-4%
CCOC(=O)C(C)Sc1nnc(NC(=O)c2ccc(C)c([N+](=O)[O-])c2)s1 (stereo not drawn)	-3%
O=C(NCCN1CCOCC1)c1cccc(Cl)c1	2%
COc1cc(OC)cc(C(=O)NNC(=S)NC(=O)c2cccnc2)c1	-10%
O=c1cnc2cnc(OCc3ccccc3)nc2n1Cc1ccc(F)cc1	-27%
Cc1cc(CN2CCCC(CO)(Cc3cccc(Cl)c3)C2)n[nH]1 (stereo not drawn)	-23%
COc1ccccc1Cn1ccn(Cc2c(F)cccc2Cl)c(=O)c1=O	6%
Cc1cn2c(=O)cc(COc3ccc(NC(=O)c4cccc(F)c4)cc3)nc2s1	-10%
O=C(O)c1ccc(COc2ccc3c(c2)CCC3)cc1	7%
C=CCNC(=O)COC(=O)c1nc2nccc(C)n2n1	3%
S=C(NC1CCCC1)N1CCN(C/C=C/c2ccccc2)CC1	-6%
Cc1cc(C(=O)NNC(=S)NCC(C)C)cs1	-14%
Cc1cccc(C(=O)OC(C)CN2CCOCC2)c1 (stereo not drawn)	-9%
O=S(=O)(c1ccc2c(c1)OCCO2)N1CCN(Cc2ccccc2)CC1	5%
O=C(O)C1=NN(c2cc(Cl)c(S(=O)(=O)O)cc2Cl)C(=O)C1	-14%
CCOC(=O)c1c(-c2cccc([N+](=O)[O-])c2)csc1NC(=O)CCCOc1ccccc1	-2%
NC(=O)c1cc(C(=O)c2ccc(Cl)cc2)c[nH]1	10%
N#Cc1ccccc1OCC(=O)NC1CCCCC1	-10%
CCCCC(=O)Nc1ccc2oc(-c3cccnc3)nc2c1	6%
Cc1ccc(-c2c[n+](Cc3ccc(Cl)c(Cl)c3)c3n2CCC3)cc1	9%
Cc1ccc(NC(=O)Cn2nc(C)c3ccccc3c2=O)cc1	7%
COc1ccc(N(Cc2cccs2)C(=O)COc2ccc([N+](=O)[O-])cc2)cc1	13%
Cc1ccc2c(c1)cc1c(=O)n(CC(=O)NCCN3CCCC3)nc(C)n12	-15%
CCSc1ncc(Cl)c(C(=O)Nc2c(C(=O)Nc3ccccc3)oc3ccccc23)n1	3%
CC(=O)Nc1ccc2c(c1)n(C)c(=O)n2C	-15%

Reformatted bar-delimited: entries from further up.
SMILES | VDR inhibitor
NC(=O)c1cc(C(=O)c2ccc(Cl)cc2)c[nH]1 | 10%
CCCCC(=O)Nc1ccc2oc(-c3cccnc3)nc2c1 | 6%
N#Cc1ccccc1OCC(=O)NC1CCCCC1 | -10%
Cc1ccc(-c2c[n+](Cc3ccc(Cl)c(Cl)c3)c3n2CCC3)cc1 | 9%
O=C(O)C1=NN(c2cc(Cl)c(S(=O)(=O)O)cc2Cl)C(=O)C1 | -14%

The listing picks up; the two compounds before the break are reprinted first.
SMILES	VDR inhibitor
CCSc1ncc(Cl)c(C(=O)Nc2c(C(=O)Nc3ccccc3)oc3ccccc23)n1	3%
CC(=O)Nc1ccc2c(c1)n(C)c(=O)n2C	-15%
CC(CC(=O)Nc1ccc(S(=O)(=O)N2CCOCC2)cc1)c1ccccc1 (stereo not drawn)	3%
CCOC(=O)c1sc2nc(SC)nc(-c3ccc(Cl)cc3)c2c1N	-11%
Cc1ccc(-c2csc(=S)n2CC(=O)OCC(=O)NC(C)C(C)C)cc1 (stereo not drawn)	-8%
O=C(CN(c1cccc(C(F)(F)F)c1)S(=O)(=O)c1ccccc1)N1CCOCC1	6%
c1ccc(CCNc2ccc3nncn3n2)cc1	-14%
O=C(Cn1nnc(-c2ccccc2Cl)n1)N1CCN(S(=O)(=O)c2ccc(Cl)cc2)CC1	4%
O=C(NC(=O)c1ccccc1)NC(=O)c1ccccc1	3%
O=C(CN1CCCCCC1)Nc1ccc(Br)cc1Br	11%
CCOc1ccccc1NC(=O)CN1C(=O)COc2ccc(S(=O)(=O)N3CCCCC3)cc21	-1%
CCCCNC(=O)Cc1cc(=O)[nH]c(=O)[nH]1	-4%
CN1CCN(CC(O)COCc2ccc3c(c2)OCO3)CC1 (stereo not drawn)	4%
CCC/C(=C1/c2ccccc2C(=O)N1c1ccccc1)c1ccc2c(c1)OCO2	-13%
COc1ccc(NC(=O)N2CCc3ccccc3C2)c(OC)c1	2%
Cc1oc(-c2cccc(Br)c2)nc1Cn1c(=O)cc(-c2ccccc2)c2c(C)nn(C)c21	0%
COc1ccc(C(=O)OCC(=O)Nc2ccc(OC(F)F)cc2)c(OC)c1	-3%
Cc1cc(/C=N/Nc2ncnc(N)c2[N+](=O)[O-])c(C)n1-c1ccccc1	0%
CCOC(=O)c1c(NC(=O)CSc2n[nH]c(CNc3ccccc3)n2)sc(C)c1C	-15%
Cc1ccc(N2C(=O)c3ccc(C(=O)O)cc3C2=O)c(C)c1	-10%
O=C(O)[C@@H]1C[C@@H](C(=O)O)N1	-4%&5%&-5%
COC(C/C=C/C(=O)COCc1ccccc1)OC	?
